From PubChem
Vaccinia inh: blocks a specific stage of Vaccinia orthopoxvirus infection; AID 1053133; actives 0.01% (n = 89,000); Vaccinia-infected cells, mCherry/Venus stage reporter fluorescence; stronger effect = lower value; some inactives read as strong as hits; activity change (mCherry), % (concentration not given with the values);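 active means mCherry past -33% and 40 or more points under the early reporter, replicates agreeing; inconclusive means past -33% without that gap or agreement; tested in A549 cells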;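 further: scaled between vehicle wells and reference inhibitor wells; 23 nL library stock went into each well; one replicate is shown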
Vaccinia inh Venus: also measured in Vaccinia inh; calls as there; activity change (Venus), %; measured here: Venus reporter, other viral stage;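 negative = less Venus signal; first of two replicates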
The depositor's hits bear a star; ? = inconclusive; / = not tested or not shown; & = joins results of further samples.

SMILES | Vaccinia inh | Vaccinia inh Venus
COc1ccc(S(=O)(=O)N(C)C[C@H]2OCCCC[C@H](C)Oc3ccc(NC(=O)c4ccncc4)cc3C(=O)N([C@H](C)CO)C[C@@H]2C)cc1 | 11.6 | 5.3
CN(C)CC(=O)N1[C@H](C#N)[C@@H](c2ccccc2-c2ccccc2F)[C@@H]1CO | 5.7 | -2.2
CCC(=O)N1CC2(C1)[C@H](c1ccccc1)[C@@H](CO)N2C(=O)c1cccnc1 | 3.6 | 4.1
C[C@H](CO)N1C[C@H](C)[C@@H](CN(C)Cc2ccccn2)Oc2ncc(-c3ccc(F)cc3)cc2C1=O | -1.6 | 2.3
CO[C@@H]1CN(C)C(=O)c2ccc(NC(=O)Nc3c(C)noc3C)cc2OC[C@H](C)N(CC2CC2)C[C@@H]1C | 9.1 | 9.9
COc1ccc2c3c([nH]c2c1)[C@H](CO)N(Cc1ccncc1)CC31CN(CC2CCOCC2)C1 | 22.4 | 21.2
COCC(=O)N(C)C[C@@H]1Oc2ncc(C#C[C@@H](C)O)cc2C(=O)N([C@@H](C)CO)C[C@@H]1C | 9.2 | 6.4
CCC(=O)N1[C@@H]2Cn3c(ccc(/C=C/c4ccccc4)c3=O)[C@H]1[C@@H](C(=O)N(C)C)[C@@H]2CO | 1.6 | -1.0
C[C@@H](O)C#Cc1cnc2c(c1)C(=O)N([C@@H](C)CO)C[C@H](C)[C@@H](CN(C)C(=O)Cc1ccccn1)O2 | 13.3 | 4.5
O=C(C[C@@H]1C=C[C@H](NC(=O)C2CC2)[C@@H](CO)O1)NC1CCC1 | 9.7 | 4.8
C[C@H](CO)N1C[C@H](C)[C@H](CN(C)CC2CC2)Oc2cc(C#Cc3ccccc3F)ccc2S1(=O)=O | 0.8 | -9.0
O=C(NCC[C@@H]1CC[C@H](NC(=O)C2CCCC2)[C@@H](CO)O1)c1cc(Cl)cc(Cl)c1 | -17.4 | -8.3
COc1ccc(S(=O)(=O)Nc2ccc3c(c2)CC(=O)N([C@@H](C)CO)C[C@H](C)[C@H](CN(C)Cc2ccc(-c4ccccc4)cc2)O3)cc1 | -21.6 | -10.7
CC=Cc1ccc2n(c1=O)C[C@H]1[C@H](CO)[C@@H](C(=O)NC3CCC3)[C@@H]2N1Cc1ccccc1 (mixture of isomers) | 7.9 | -1.6
CN1C(=O)c2cc(NC(=O)c3cccc(F)c3)ccc2OC[C@@H]2O[C@@H](CC(=O)NCC3CCCCC3)CC[C@H]21 | ? | /
Cc1ccccc1-c1cnc2c(c1)C(=O)N([C@H](C)CO)C[C@H](C)[C@@H](CN(C)Cc1ccccc1F)O2 | -13.7 | -8.9
COc1ccc(C#Cc2ccc3c(c2)[C@]2(C(=O)N3)[C@H](c3ccc(OCCO)cc3)N3[C@H](c4ccccc4)[C@H](c4ccccc4)OC(=O)[C@H]3[C@@H]2C(=O)N2CCCCCCC2)cc1 | -17.7 | 35.1
CS(=O)(=O)Nc1ccc2c(c1)[C@@H]1C[C@H](CC(=O)N3CCc4ccccc4C3)O[C@@H](CO)[C@@H]1O2 | -1.2 | -3.7
C[C@@H]1CCCCO[C@H](CN(C)C(=O)Nc2cccc3ccccc23)[C@@H](C)CN([C@@H](C)CO)C(=O)c2cc(NS(C)(=O)=O)ccc2O1 | 32.2 | 17.8
O=C(CC(F)(F)F)N1C[C@@H]2[C@H](c3ccccc31)[C@H](CO)N2CC1CCCCC1 | -30.0 | -12.4
O=C(Nc1ccc(F)cc1)N[C@H]1CC[C@H](CCNS(=O)(=O)c2ccccc2F)O[C@@H]1CO | -6.3 | -3.7
COc1ccc(-c2ccc([C@H]3[C@@H](CO)N4C(=O)CN(C(=O)C5CCC5)C[C@@H]34)cc2)cc1 | 8.0 | 8.3
C[C@H](CO)N1C[C@H](C)[C@H](CN(C)S(=O)(=O)c2ccc(Cl)cc2)Oc2ccc(NC(=O)c3ccncc3)cc2CC1=O | 1.5 | -4.8
CCCN1[C@@H]2c3ccc(-c4ccncc4)c(=O)n3C[C@@H]2[C@@H](CO)[C@@H]1C(=O)N1CCOCC1 | -3.5 | 14.3

Reprinted from the listing (4 entries):
SMILES | Vaccinia inh | Vaccinia inh Venus
O=C(Nc1ccc(F)cc1)N[C@H]1CC[C@H](CCNS(=O)(=O)c2ccccc2F)O[C@@H]1CO | -6.3 | -3.7
COc1ccc(-c2ccc([C@H]3[C@@H](CO)N4C(=O)CN(C(=O)C5CCC5)C[C@@H]34)cc2)cc1 | 8.0 | 8.3
C[C@H](CO)N1C[C@H](C)[C@H](CN(C)S(=O)(=O)c2ccc(Cl)cc2)Oc2ccc(NC(=O)c3ccncc3)cc2CC1=O | 1.5 | -4.8
CCCN1[C@@H]2c3ccc(-c4ccncc4)c(=O)n3C[C@@H]2[C@@H](CO)[C@@H]1C(=O)N1CCOCC1 | -3.5 | 14.3

(next part)
SMILES | Vaccinia inh | Vaccinia inh Venus
CCCN(C)C[C@@H]1Oc2ncc(-c3cccc(C#N)c3)cc2C(=O)N([C@@H](C)CO)C[C@@H]1C | 7.6 | 8.2
C[C@H](CO)N1C[C@H](C)[C@H](CN(C)C(=O)Nc2cccc3ccccc23)Oc2c(NC(=O)Nc3ccc4c(c3)OCO4)cccc2C1=O | -23.0 | -7.4
C[C@H](CO)N1C[C@H](C)[C@H](CN(C)Cc2ccncc2)Oc2c(NC(=O)C3CCOCC3)cccc2C1=O | 35.1 | -0.7
C[C@@H]1CN([C@@H](C)CO)S(=O)(=O)c2ccc(C#Cc3ccc(F)cc3)cc2O[C@H]1CN(C)S(=O)(=O)c1ccc(F)cc1 | -9.5 | -13.8
C/C=C/c1cnc2c(c1)C(=O)N([C@H](C)CO)C[C@@H](C)[C@@H](CN(C)S(=O)(=O)c1ccc(C)cc1)O2 | -1.8 | -3.7
COc1ccc(NC(=O)N2CCCCN3[C@H](CO)[C@H](c4ccc(-c5ccccc5F)cc4)[C@H]3C2)cc1 | ? | /
O=C(C[C@H]1C[C@@H]2c3cc(NC(=O)c4cccnc4)ccc3O[C@@H]2[C@@H](CO)O1)NC1CCCCC1 | 0.8 | 2.0
C[C@H]1CN([C@@H](C)CO)C(=O)c2cc(NC(=O)Cc3ccccc3)ccc2O[C@H]1CN(C)Cc1ccc(Oc2ccccc2)cc1 | -14.7 | -18.7
CCC(=O)Nc1ccc2c(c1)C(=O)N(C)C[C@@H](OC)[C@@H](C)CN(C(=O)COC)[C@@H](C)CO2 | 9.3 | 7.2
CO[C@H]1CN(C)C(=O)c2ccc(NC(=O)C3CC3)cc2OC[C@H](C)N(CCc2ccccc2)C[C@@H]1C | -22.6 | -13.7
C[C@H](NC(=O)[C@@H]1[C@@H](CO)[C@@H]2Cn3c(cccc3=O)[C@@H]2N1CCC(F)(F)F)c1ccccc1 | -7.9 | 3.5
O=C(C[C@H]1C=C[C@@H](NS(=O)(=O)c2ccc(F)cc2)[C@@H](CO)O1)NC1CCC1 | -4.6 | 1.0
C[C@@H]1CN([C@H](C)CO)C(=O)c2cc(NC(=O)Nc3ccc(F)cc3)ccc2O[C@@H](C)CCCCO[C@@H]1CN(C)S(=O)(=O)c1ccccc1 | 32.4 | 14.8
C[C@H](CO)N1C[C@H](C)[C@H](CN(C)C)Oc2c(NC(=O)NC3CCCCC3)cccc2C1=O | 1.4 | 4.5
CO[C@@H](CN(C)S(=O)(=O)c1ccc(F)cc1)[C@@H](C)CN(C(=O)Nc1ccccc1F)[C@H](C)CO | -19.0 | -14.3
C[C@H](CO)N1C[C@H](C)[C@H](CN(C)Cc2ccc(Cl)c(Cl)c2)OCc2cn(nn2)CCCC1=O | -31.0 | -26.9
O=C(C[C@@H]1CC[C@H]2[C@@H](COC[C@H](O)CN2C(=O)c2ccncc2)O1)NC1CCC1 | 7.5 | 8.2
C[C@H]1CN([C@@H](C)CO)C(=O)Cc2cc(NC(=O)Nc3cccc4ccccc34)ccc2O[C@@H]1CN(C)C(=O)Nc1ccccc1 | 15.4 | 13.6
O=C(Nc1ccc(C(F)(F)F)cc1)N[C@@H]1CC[C@H](CC(=O)N2CCCCC2)O[C@@H]1CO | -12.1 | -8.6
C[C@@H]1CCCCO[C@H](CN(C)S(=O)(=O)c2ccccc2)[C@H](C)CN([C@@H](C)CO)C(=O)c2cc(NS(=O)(=O)c3ccc(F)cc3)ccc2O1 | -33.5 | -21.5
CO[C@H]1CC[C@@H]2CCOc3ccc(C#N)cc3C(=O)N(C)C[C@H](OC)[C@@H](C)C(=O)N(C)C[C@H]1O2 | 8.8 | 9.6
CC(=O)N(C)C[C@@H]1Oc2cc(C#Cc3ccc(F)cc3)ccc2S(=O)(=O)N([C@@H](C)CO)C[C@@H]1C | ? | /
C[C@@H]1CN([C@H](C)CO)C(=O)c2cccc(NS(=O)(=O)c3cn(C)cn3)c2O[C@@H]1CN(C)C(=O)NC1CCCCC1 | 14.1 | 5.4
O=C(c1ccncc1)N1CC[C@@H]2[C@H]1c1cc(-c3ccccc3)ccc1N[C@@H]2CO | 3.3 | 10.6
CO[C@H]1CN(C)C(=O)c2cc(NC(=O)c3ccc(-c4ccccc4)cc3)ccc2OC[C@@H](C)NC[C@@H]1C | ? | /
CCC(=O)N1[C@@H]2CN(S(=O)(=O)c3ccccc3C)c3ccccc3[C@@H]2[C@@H]1CO | -6.3 | -7.3
CCC(=O)N1[C@H](C#N)[C@H](c2ccccc2-c2ccccc2)[C@H]1CO | -3.9 | -9.3
CC(C)C#Cc1cnc2c(c1)C(=O)N([C@@H](C)CO)C[C@H](C)[C@H](CN(C)S(=O)(=O)c1cn(C)cn1)O2 | 17.3 | 4.3
COc1cccc(CN(C)C[C@@H]2OCc3cnnn3CCCC(=O)N([C@@H](C)CO)C[C@H]2C)c1 | 13.5&10.6 | 8.8&13.7
COC(=O)C[C@@H]1CC[C@@H]2[C@H](COc3ccc(NC(=O)c4cccc(F)c4)cc3C(=O)N2C)O1 | 0.1 | 3.1
O=C(Cc1cccnc1)N1CC(=O)N2[C@@H](CO)[C@@H](c3ccc(C#CC4CCCCC4)cc3)[C@@H]2C1 | -27.9 | -23.3
C[C@@H]1CN([C@H](C)CO)S(=O)(=O)c2ccc(-c3ccccc3)cc2O[C@@H]1CN(C)Cc1ccccn1 | -18.8 | -17.6
C[C@H]1CN([C@@H](C)CO)S(=O)(=O)c2ccc(-c3cccc(F)c3)cc2O[C@H]1CN(C)CC1CC1 | -14.1 | -11.1
C[C@H](CO)N1C[C@H](C)[C@@H](CN(C)Cc2cccnc2)Oc2cc(-c3cncnc3)ccc2S1(=O)=O | 6.5 | 3.5
CCC(=O)N[C@H]1CC[C@H](CC(=O)NCC2CCCCC2)O[C@@H]1CO | -0.3 | 6.6
CN(C)C(=O)C[C@@H]1CC[C@H]2[C@@H](COC[C@@H](O)CN2S(=O)(=O)c2ccccc2Cl)O1 | 20.6 | 14.4

Three compounds already listed, arranged by formula weight, low to high.
SMILES | Vaccinia inh | Vaccinia inh Venus
CCC(=O)N1[C@H](C#N)[C@H](c2ccccc2-c2ccccc2)[C@H]1CO | -3.9 | -9.3
O=C(Cc1cccnc1)N1CC(=O)N2[C@@H](CO)[C@@H](c3ccc(C#CC4CCCCC4)cc3)[C@@H]2C1 | -27.9 | -23.3
C[C@H](CO)N1C[C@H](C)[C@@H](CN(C)Cc2cccnc2)Oc2cc(-c3cncnc3)ccc2S1(=O)=O | 6.5 | 3.5

(continued)
SMILES | Vaccinia inh | Vaccinia inh Venus
O=C(C[C@@H]1CC[C@H](NC(=O)Nc2ccc(C(F)(F)F)cc2)[C@@H](CO)O1)NCc1cc(F)cc(F)c1 | 4.8 | 16.0
COCC#Cc1ccc2c(c1)O[C@H](CN(C)S(=O)(=O)c1ccc(OC)cc1)[C@@H](C)CN([C@H](C)CO)S2(=O)=O | -15.5 | -8.6
C[C@@H]1CCCCO[C@@H](CN(C)Cc2ccccc2)[C@@H](C)CN([C@H](C)CO)C(=O)c2cc(NC(=O)Cc3ccccc3)ccc2O1 | -25.9 | -20.0
C/C=C/c1ccc([C@H]2[C@H]3CN(Cc4ccc(C)cc4)CC(=O)N3[C@H]2CO)cc1 | -0.2 | -2.5
Cc1noc(C)c1S(=O)(=O)Nc1cccc2c1O[C@@H](CN(C)S(=O)(=O)c1ccc(Cl)cc1)[C@@H](C)CN([C@H](C)CO)C2=O | -25.4 | -27.3
O=C(C[C@@H]1C[C@H]2c3cc(NC(=O)NC4CCCC4)ccc3O[C@H]2[C@@H](CO)O1)NCc1ccccc1F | 19.5 | 12.3
Cc1noc(C)c1NC(=O)Nc1ccc2c(c1)C(=O)N([C@H](C)CO)C[C@H](C)[C@H](CN(C)Cc1ccccc1)OCCCC[C@@H](C)O2 | 18.3 | 5.1
O=C(NCC1CC1)[C@@H]1[C@@H](CO)[C@@H]2Cn3c(ccc(-c4cccc(F)c4)c3=O)[C@@H]2N1CC1CC1 | -1.8 | -9.7
C[C@@H]1CN([C@@H](C)CO)C(=O)c2cc(NC(=O)C3CCCCC3)ccc2O[C@@H](C)CCCCO[C@H]1CN(C)Cc1ccc2c(c1)OCO2 | ? | /
CCCNC(=O)C[C@@H]1CC[C@@H]2[C@H](COC[C@H](O)CN2Cc2ccccc2F)O1 | 3.2 | -2.8
Cc1ccc(S(=O)(=O)N(C)C[C@H]2OCCCC[C@@H](C)Oc3ccc(NS(=O)(=O)c4cn(C)cn4)cc3C(=O)N([C@H](C)CO)C[C@H]2C)cc1 | -1.2 | -8.6
CCCN(C)C[C@@H]1Oc2cc(-c3ccc(F)cc3)ccc2S(=O)(=O)N([C@@H](C)CO)C[C@@H]1C | -20.7 | -14.2
CC(C)CC#Cc1cnc2c(c1)C(=O)N([C@@H](C)CO)C[C@H](C)[C@@H](CN(C)C(=O)Nc1ccccc1F)O2 | -31.2 | -31.4

Quoted at random: two records from the list.
SMILES | Vaccinia inh | Vaccinia inh Venus
O=C(C[C@@H]1CC[C@H](NC(=O)Nc2ccc(C(F)(F)F)cc2)[C@@H](CO)O1)NCc1cc(F)cc(F)c1 | 4.8 | 16.0
C[C@@H]1CN([C@@H](C)CO)C(=O)c2cc(NC(=O)C3CCCCC3)ccc2O[C@@H](C)CCCCO[C@H]1CN(C)Cc1ccc2c(c1)OCO2 | ? | /

Some of the compounds tested (hit frequency here may not be typical).
